LASV entry inh – blocks Lassa virus binding to or entry into cells; Lassa virus pseudotype entry inhibition, cell reporter; control for the full effect not named in the record; actives 1.2% (n = 300,000); Potency, µM (highest dose often 37.9 µM), without a hit: at the highest dose activity change, negative = inhibition, hits mostly inhibitors; AID 540256; active means well fitted inhibition curve with a large enough effect; inconclusive means small, poorly fitted or top-dose-only effect, or effect the other way; inactive means flat fitted curve, though single readings scatter; tested in HEK293 cells; further: on the % scale 0 is the no-effect control and ±100 the full control effect; nearly all actives have a fitted effect of over 50% in size; luciferase read-out
RE007 growth inh – less growth of the S. pombe RE007 Vpr strain; S. pombe RE007 Vpr strain, BacTiter-Glo ATP luminescence, 24 h; control for the full effect not named in the record; Potency, µM (series often up to 92.2 µM), inactives show at the top dose activity change, negative = less growth; actives 0.21% (n = 360,000); active = well fitted falling curve with a large enough effect; inconclusive = small, poorly fitted or top-dose-only effect; inactive = no such curve, though single readings can be large or run the other way;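 further: on the % scale 0 is the no-effect control and ±100 the full control effect; nearly all actives have a fitted effect of over 50% in size; the assay follows cell death caused by Vpr and the record does not say whether a fall means rescue or toxicity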
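Fission yeast RE007 carrying one integrated HIV-1 vpr copy, seeded at OD 0.01 in PMG+AL medium with 23 nL pinned compound. Grown 24 h at 30 degrees; viability read by BacTiter-Glo luminescence after 5 min.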
SARS PLpro yeast – inhibitors of SARS-CoV papain-like protease in yeast | Potency, µM (series often up to 32.9 µM), for inactives: at the top dose activity, positive = growth rescue | actives 0.19% (n = 330,000) | S. cerevisiae expressing SARS-CoV PLpro, growth rescue; control for the full effect not named in the record; further: 0% is about no effect; nearly all actives have a fitted effect of over 55% in size; growth read by luminescence after 48 h
Cruzain Triton – cruzain (T. cruzi) inhibition with detergent | purified cruzain, Z-FR-AMC fluorescence, 0.01% Triton | Potency, µM, without a hit: max response, negative = inhibition, actives largely listed as inhibitors | AID 1478 | P25779 | actives 0.43% (n = 200,000); active means well fitted curve in the direction sought with a large enough effect; inconclusive means small, poorly fitted or top-dose-only effect, or another doubt; inactive means no such curve, though single readings can be large; an effect the other way counts as inactive or inconclusive;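 further: plate controls were neutral wells for no effect and buffer without enzyme for full effect; nearly all actives have a fitted effect of over 40% in size; top concentration of the series not given in the record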
Target sequence (P25779 123-467 limits assumed): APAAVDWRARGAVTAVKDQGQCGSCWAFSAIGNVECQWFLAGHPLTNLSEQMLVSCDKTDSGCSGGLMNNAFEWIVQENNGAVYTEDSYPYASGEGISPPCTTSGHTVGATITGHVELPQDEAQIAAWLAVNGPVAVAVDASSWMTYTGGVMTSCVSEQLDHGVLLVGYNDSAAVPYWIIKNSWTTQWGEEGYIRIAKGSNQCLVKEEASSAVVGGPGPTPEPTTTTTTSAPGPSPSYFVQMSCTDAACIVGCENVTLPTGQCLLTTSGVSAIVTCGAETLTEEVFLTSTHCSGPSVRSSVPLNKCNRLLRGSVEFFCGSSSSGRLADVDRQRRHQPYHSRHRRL
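Cruzain (1.5 nM) preincubated 15 min at RT with compound in 100 mM sodium acetate pH 5.5, 5 mM DTT, 0.01% Triton X-100. Reaction started with 2 uM Z-FR-AMC; AMC fluorescence (ex 360/em 450 nm) change over 60 s gave rate.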
MARV entry inh – inhibitors of Marburg virus binding or cell entry. Marburg virus pseudotyped entry inhibition, cell reporter; control for the full effect not named in the record; about a third of the inactives were read at about 46 µM. AID 540276. actives 1.8% (n = 300,000). Potency, µM (top dose mostly 37.8 µM), without a hit: at the top dose activity change, negative = inhibition, actives largely listed as inhibitors; active = well fitted inhibition curve with a large enough effect; inconclusive = small, poorly fitted or top-dose-only effect, or effect the other way; inactive = flat fitted curve, though single readings scatter; tested in HEK293 cells; about a fifth of its hits are not listed in these tables; further: on the % scale 0 is the no-effect control and ±100 the full control effect; luciferase read-out
Cruzain noTriton – cruzain (T. cruzi) inhibition without detergent | purified cruzain, Z-FR-AMC fluorescence, no detergent | Potency, µM, for the others: max response, negative = inhibition, most hits filed as inhibitors | actives 2.3% (n = 200,000) | AID 1476; active means well fitted curve in the direction sought with a large enough effect; inconclusive means small, poorly fitted or top-dose-only effect, or another doubt; inactive means no such curve, though single readings can be large; an effect the other way counts as inactive or inconclusive;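 further: plate controls were enzyme without inhibitor for no effect and buffer without enzyme for full effect; nearly all actives have a fitted effect of over 40% in size; top concentration of the series not given in the record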
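Purified cruzain at 1.5 nM, pre-incubated 15 min with compound at room temperature in 100 mM sodium acetate pH 5.5, 5 mM DTT, 0.00005% Triton X-100. Reaction started with 2 uM Z-FR-AMC; AMC fluorescence increase over 60 s gives rate.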
NS1 inh – inhibitors of influenza NS1 protein function | actives 0.4% (n = 270,000) | S. cerevisiae slowed by influenza A NS1, growth recovery by OD600 | Potency, µM (highest dose often 46.1 µM), for the others: top-dose activity, positive = more growth | AID 2326; further: actives are rising curves; nearly all actives have a fitted effect of over 50% in size
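A cell-based growth assay was used: compounds that relieve NS1-induced slow growth of budding yeast raise OD600. Assay medium was yeast nitrogen base with ammonium sulphate and -URA supplement, pH 6.0, with 2% galactose.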
StopGo reporter – lowers the luciferase signal of an FMDV 2A StopGo reporter | human cells with a luciferase reporter of 2A StopGo recoding; control for the full effect not named in the record | Potency, µM (doses to about 57.9 µM), for the others: at the highest dose signal change, negative = less light | actives 1.2% (n = 410,000); active = well fitted falling curve with a large enough effect; inconclusive = small, poorly fitted or top-dose-only effect; inactive = no such curve, though single readings can be large or run the other way; tested in HEK293T cells; further: on the % scale 0 is the no-effect control and ±100 the full control effect; nearly all actives have a fitted effect of over 45% in size; luciferase light after 4 h
The depositor's hits bear a star; u = inconclusive; x = not tested or not shown; & = joins results of further samples; [ ] = dose if it differs, or a comment. Unless noted, the call rests on the fitted dose curve; in most records, active means well fitted rising curve with a large enough effect; inconclusive means small, poorly fitted or top-dose-only effect; inactive means no such curve, though single readings can be large or run the other way. Potency means the concentration at half of the fitted maximal effect.

SMILES	LASV entry inh	RE007 growth inh	SARS PLpro yeast	Cruzain Triton	MARV entry inh	Cruzain noTriton	NS1 inh	StopGo reporter
CC(=O)c1cccc(S(=O)(=O)N2CCC(C(=O)O)CC2)c1	x	9%	-3%	x	x	x	10%	38%[activator]
Cc1cccn2c(CNCC(C)Oc3cccnc3)c(C(=O)N3CCOCC3)nc12 (configuration not stated)	x	-8%	-5%	x	x	x	-5%	4.5µM*
COc1ccccc1NS(=O)(=O)c1cc([N+](=O)[O-])ccc1N/N=C/c1c[nH]c2ccccc12	-4%	-10%	-2%	5.5%	u	10µM*	4%	4%
O=C(Nc1ccncc1)c1ccc(Cl)cc1	x	-12%	-2%	x	x	x	-4%	-19%
COc1ccc(CCC(=O)OCc2csc(CC(=O)Nc3ccccc3C)n2)cc1	u	-5%	-5%	x	u	x	-4%	-21%
COC(=O)c1c[nH]n2c(=O)c(Cc3ccc(F)cc3Cl)c(C)nc12	-4%	-10%	-41%	2.6%	9%	8%	-82%	-25%
CCN(CC)CCNC(=O)c1ccc(NC(=O)c2cccc(S(=O)(=O)N3CCCCCC3)c2)cc1	u	-11%	x	x	u	x	x	6%
O=C(NCc1ccc2c(c1)OCO2)c1ccc(N2CCCC2=O)cc1	9%	-14%	0%	2.5%	29%	-5%	0%	60%[activator]
Cc1ccc(C(=O)CCC(=O)N2CCN(c3ccccc3O)CC2)cc1	-23%	u	0%	x	4%[46.1 µM]	x	x	-24%
COc1cn(-c2ccccc2)nc1C(=O)Nc1ccc(C)cc1Cl	0%[46.1 µM]	-11%	-2%	x	u	x	-6%	27%
CCOc1ccc(NC(=O)CCNS(=O)(=O)c2ccc(Br)s2)cc1	-4%	10%	4%	5.3%	2%	1%	-2%	x
CC(=O)N1CCN(c2ccc(Oc3ccc([N+](=O)[O-])c(C(F)(F)F)c3)cc2)CC1	u	5%	-30%	x	u	x	-27%	u
COc1cc(NC(=O)CN2C(=O)COc3ccc(S(=O)(=O)N4CCCCC4)cc32)cc(OC)c1	-9%&0%[46.1 µM]	0%	-1%	-3.6%	-11%&-11%[46.1 µM]	-3%	-3%	9%&-8%
COC(=O)Cn1cc(C(=O)c2cccs2)c2ccccc21	11%	u	-21%	-3.3%	8%	-6%	-37%	-17%
Cc1ccc(S(=O)(=O)c2c(N)n(CCCO)c3nc4ccccc4nc23)cc1	-19%	12%	3%	-26%	-11%	27%	-11%	5%
O=C(O)c1cnc(-c2ccccc2)nc1-c1ccccc1	-40%[46.1 µM]	14%	0%	x	-4%[46.1 µM]	x	x	-8%
COc1ccc(Cn2nnnc2C(c2cccs2)N2CCN(c3ccc([N+](=O)[O-])cc3)CC2)cc1 (configuration not stated)	1%	32%	2%	-3.4%	u	32µM*	3%	u
CC1CCCN(S(=O)(=O)c2cccc(C(=O)NCc3ccco3)c2)C1 (configuration not stated)	-18%	19%	0%	x	-22%	x	x	29%
Cc1ccc(S(=O)(=O)Nc2cc3c(C(=O)OCc4ccccc4)c(C)oc3c3ccccc23)c(C)c1	6%[46.1 µM]	x	x	-1.4%	-5%[46.1 µM]	5µM*	x	1%
COc1cccc(OC)c1C(=O)N1CCN(Cc2ccccc2C(F)(F)F)CC1	-5%	3%	0%	-2.8%	u	u	-8%	u
CC1=C(C#N)C(C)C2=C(CC(C)(C)CC2=O)N1 (configuration not stated)	-10%	8%	-2%	-0.6%	-25%	8%	-5%	-6%
Cn1c(=O)[nH]c(=O)c2c1nc(SCCN1CCCCC1)n2Cc1ccccc1	-1%	-7%	-2%	4.9%	0%[46.1 µM]	3%	-1%	-25%
COc1cc(CCC(O)CC(=O)CCc2ccccc2)ccc1O (configuration not stated)	x	11%	15%	x	x	x	2%	-9%
O=C(COc1ccc(Cl)cc1Cl)Nc1ccc(Cl)cn1	u	-9%	-4%	2.5%	u	5%	-7%	x
COc1cccc(-c2nn(C)c3sc(C(=O)NCc4cc(OC)ccc4OC)cc23)c1	-33%[46.1 µM]	x	x	-1.2%	7%[46.1 µM]	1%	x	u

Remaining list, next part
SMILES	LASV entry inh	RE007 growth inh	SARS PLpro yeast	Cruzain Triton	MARV entry inh	Cruzain noTriton	NS1 inh	StopGo reporter
COC(=O)c1cccc(NC(=O)c2cnccn2)c1	u	-2%	4%	x	2%	x	2%	6%
Cc1ccc(OCc2cnc(Cl)s2)c(C)c1	4%[46.1 µM]	-2%	0%	x	u	x	0%	13%
N/C(=N\OC(=O)COc1ccc(Br)cc1)c1ccncc1	0%	-26%	-2%	-1.0%	21%	-1%	-1%	38%[activator]
CCc1ccc2c(c1)c1nc(C)sc1n2CC(=O)OC	19%	7%	-29%	-2.6%	-9%	-7%	-18%	3%
C=CCn1c(SCC(=O)c2ccc(Br)cc2)nnc1C(CC(C)C)NC(=O)c1cccs1 (configuration not stated)	u	-11%	-5%	0.1%	1%	-3%	16%	-22%
Cc1nc2ccccc2c(=O)n1/N=C/c1ccccc1	0%	2%	-3%	-0.2%	11%	-13%	-12%	x
O=C(NC1=NCCS1)c1ccc(-c2ccc(Cl)cc2)o1	u	u	-30%	u	-2%	-3%	-145%	52%[activator]
N=C1C(c2ccccc2)=C(O)CN1c1cccc(S(=O)(=O)Nc2cccc(C(F)(F)F)c2)c1	13%[46.1 µM]	11%	8%	-5.9%	2%	2%	20%	5%
O=C(Nc1ccc(F)cc1)NC1(C(=O)NCc2cccs2)CCCCC1	10%	-6%	-3%	8.9%	u	u	1%	x
COCC(=O)n1nc(-c2ccccc2)nc1NCc1ccccc1	u	7%	-1%	x	u	x	-2%	10%
C#CC1(O)CCC2C3CCc4cc(O)cc(C)c4C3CCC21C (configuration not stated)	9%	u	x	x	u	x	x	-18%
CCOC(=O)c1nc(Nc2ccc(C(=O)O)cc2)c2ccccc2n1	-4%	-9%	-2%	-0.1%	12%	-6%	5%	5%
Cc1nn(C)c(C)c1NC(=O)c1ccc(S(=O)(=O)N(C)C)cc1	18%	4%	-4%	-0.2%	-6%	-5%	u	17%
O=C(CN1C(=O)NC2(CCCC2)C1=O)OCCOc1ccccc1Cl	-3%	-19%	-7%	x	27%	x	x	-5%
Cc1ccc(CNc2ccc(N3C(=O)CC(C)C3=O)cc2[N+](=O)[O-])cc1 (configuration not stated)	-1%	-6%	-1%	-4.5%	1%	3%	-6%	-16%
COc1ccc(N2CCN(CC(=O)c3c(C)n(C)c4ccc(OC)cc34)CC2)cc1	-17%	-9%	0%	x	-13%[14.2 µM]	x	u	-25%
O=C1COc2ccc(C(=O)CSc3nnnn3-c3ccccc3)cc2N1	20%	1%	3%	5.0%	-2%	-12%	5%	-12%
Cn1ccc(C(=O)Nc2ccc3c(c2)OCCO3)n1	x	u	-4%	x	x	x	-21%	25%
C=CCN1C(=O)N/C(=C/c2ccc(C)o2)C1=O	0%	u	-7%	-5.0%	0%	5%	-37%	12%
Cc1[nH]n(-c2ccccc2)c(=O)c1N=O	-14%	-7%	-1%	x	-4%[46.1 µM]	x	-52%	-4%
Cc1ccc(SC[C@H](C)CN2CC[C@H](NC(=O)OCc3ccccc3)CCC2=O)cc1	x	-22%	-1%	x	x	x	17%	-25%
COc1ccc(CN2CCN(c3ncnc4scc(-c5ccc(F)cc5)c34)CC2)cc1	u	-10%	0%	x	13µM*	x	-13%	u
COc1ccc(NC(=O)CCSc2nnnn2C)cc1	23%	-2%	8%	x	24%	x	x	14%
Cn1c(SCC(=O)OCC(=O)c2ccccc2)nnc1-c1cccs1	-7%	3%	8%	-6.1%	-5%	-13%	-15%	-8%
COc1ccc(/C=C(\C#N)C(=O)NCc2ccccc2)cc1	12%[46.1 µM]	-1%	1%	x	10%[46.1 µM]	x	0%	19%

(list continues)
SMILES	LASV entry inh	RE007 growth inh	SARS PLpro yeast	Cruzain Triton	MARV entry inh	Cruzain noTriton	NS1 inh	StopGo reporter
c1ccc(OCCn2c(-c3ccco3)nc3ccccc32)cc1	1%	20%	-10%	-4.5%	-24%	4%	-86%	x
CCOC(=O)C(O)(CCC(O)(C(=O)OCC)C(=O)OCC)C(=O)OCC	-2%	10%	1%	0.7%	-1%	-2%	-2%	x
O=C(Nc1nc(-c2ccccc2)cs1)c1ccccc1F	4%[46.1 µM]	-21%	-9%	x	u	x	4%	28%
O=C(NC(=S)NCCCN1CCOCC1)c1ccco1	-2%[46.1 µM]	3%	1%	x	4%[46.1 µM]	x	12%	-4%
COc1ccc(N(C(=O)c2cccnc2)S(=O)(=O)c2ccc(F)cc2)cc1	x	1%	-5%	x	x	x	-8%	-4%
COc1ccc(S(=O)(=O)N(CC(=O)N2CCCCCC2)c2ccccc2OC)cc1	-15%[46.1 µM]	7%	-1%	x	-8%[46.1 µM]	x	-3%	40%[activator]
CC(=O)c1sc(NS(=O)(=O)c2ccc(C)cc2)nc1C	u	11%	1%	x	u	x	x	133%[activator]
Cc1ccn2cc(CCNS(=O)(=O)c3ccc(F)c(C(F)(F)F)c3)nc2c1	x	-8%	8%	-5.1%	x	25µM*	-1%	0%
CCOc1cc(C(=O)CCC(=O)OCC(=O)Nc2ccc(F)cc2)ccc1O	-1%	7%	-1%	x	7%	x	x	-15%
CCc1ncc(CN2CCC(C(=O)Nc3cccc(-c4cscn4)c3)CC2)cn1	u	2%	15%	x	-25%	x	6%	u
COc1cc(C(=O)N(Cc2ccc(F)cc2)Cc2ccco2)cc(OC)c1OC	-15%[46.1 µM]	x	x	-0.1%	u	u	x	-22%
CCOC(=O)c1ccc(NC(=O)C2=C(C)C(=O)OC23CCN(C(C)C)CC3)cc1	-5%[46.1 µM]	x	x	-0.4%	x	-5%	x	1%
COc1ccccc1NC(=O)CCN1CCN(Cc2ccccc2)CC1	2%	7%	2%	3.3%	8%	-4%	0%	x
Cc1ccc(NC(=O)COc2ccc(Br)cn2)cc1	23%[46.1 µM]	-19%	0%	x	14%[46.1 µM]	x	-2%	14%
NC(=O)C1=C(N=C2CCCCC2)CCCC1	1%[46.1 µM]	-10%	x	x	-2%	x	x	-24%
CCOc1ccc(N2C(=O)c3ccccc3C2=O)cc1	u	17%	-1%	0.4%	u	4%	0%	31%[activator]
Cc1ccc(C(=O)CC(=O)COc2ccc(Cl)cc2)cc1	-4%	u	-11%	-6.0%	10%[46.1 µM]	-11%	-7%	15%
COc1cc(CC(=O)OCC(=O)Nc2ccc(Cl)c(S(=O)(=O)N(C)C)c2)cc(OC)c1OC	x	7%	0%	x	x	x	-37%	-22%

Screens as filed in PubChem.

Random draw from the library; any-hit rate near 4.5%.
